Mtb growth = Mycobacterium tuberculosis H37Rv growth inhibition, putative kinase inhibitor library, confirmatory dose response (AID 2842); inhibition, % at 10 µg/mL; hits with a dose series show IC90 in µg/mL; M. tuberculosis H37Rv growth inhibition; higher % means a stronger effect; some inactives read as strong as hits; 24,000 compounds, 5.2% hits;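 active means confirmed in a dose series; about a fifth of its hits are not listed in these tables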;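 further: bacteria incubated one week before Alamar blue readout; 0% = bacteria only wells and 100% = bacteria with high antibiotic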
* marks the source's active call; other numbers are inactive results. These rows are one share of the data; count on the stated rates, not on these rows.

| SMILES | Mtb growth |
| --- | --- |
| COc1ccc(S(=O)(=O)c2cn(Cc3ccc(Cl)cc3)c3ccc(F)cc3c2=O)cc1 | 6% |
| CC1CCc2sc(NC(=O)c3cccc(Br)c3)c(C(N)=O)c2C1 (stereo unspecified) | -3% |
| O=C(CSc1nc2ccccc2s1)Nc1nnc(-c2ccc(F)cc2)s1 | -10% |
| Fc1ccc2nc(N3CCN(c4nc5ccccc5s4)CC3)sc2c1 | 8% |
| Cc1cc2cc(CNC(=O)Nc3ccccc3)ccc2n1C | 6% |
| COc1ccc(C(=O)Nc2sc3c(c2C(N)=O)CCCCC3)cc1OC | -3% |
| CC1Cc2nc(SCC(=O)Nc3ccc(F)cc3)n(Cc3ccccc3)c(=O)c2S1 (stereo unspecified) | 2% |
| O=C(Nc1nnc(-c2ccc(Cl)s2)o1)c1ccc2c(c1)OCCO2 | 75% |
| COC(=O)c1ccc(NC(=S)N/C(=N\CS(=O)(=O)c2ccccc2)c2ccccc2)cc1 | 65% |
| CC1(C)CC(=O)C2=C(C1)OC(N)=C(C#N)C2c1cccs1 (stereo unspecified) | 7% |
| Clc1cccc(-c2nnn3c2nc(NCc2ccc4c(c2)OCO4)c2ccccc23)c1 | 12% |
| CC(C)c1ccc(-c2csc(NC(=O)c3ccc(S(=O)(=O)N4CCc5ccccc54)cc3)n2)cc1 | 24% |
| Cc1cccc(NC(=O)CSc2nnc3[nH]c(=O)c(C)c(C)n23)c1C | -11% |
| COc1ccc(S(=O)(=O)NCc2ccco2)cc1[N+](=O)[O-] | 12% |

Taken from above (6 entries):
| SMILES | Mtb growth |
| --- | --- |
| COc1ccc(S(=O)(=O)c2cn(Cc3ccc(Cl)cc3)c3ccc(F)cc3c2=O)cc1 | 6% |
| CC1CCc2sc(NC(=O)c3cccc(Br)c3)c(C(N)=O)c2C1 (stereo unspecified) | -3% |
| O=C(CSc1nc2ccccc2s1)Nc1nnc(-c2ccc(F)cc2)s1 | -10% |
| Fc1ccc2nc(N3CCN(c4nc5ccccc5s4)CC3)sc2c1 | 8% |
| Cc1cc2cc(CNC(=O)Nc3ccccc3)ccc2n1C | 6% |
| COc1ccc(C(=O)Nc2sc3c(c2C(N)=O)CCCCC3)cc1OC | -3% |

Screens as filed in PubChem.
